# rRNA inh HTS: selective bacterial rRNA inhibition in E. coli; E. coli WT GFP vs humanized-ribosome RFP mutants, fluorescence, 24 h; stronger effect = lower value; DMSO median 0, no signal -100; GFP signal change (wild-type ribosome), % (no concentration beside the values); 1.6% of 350,000 active;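 active = significant combined selectivity score with lowered wild-type GFP, culture density cut under 30%, mutant RFP and density less affected; inactive = any of these conditions unmet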; also: one replicate is shown; some compounds called inactive have numbers as strong as hits
# MLL AF4-AF9 inh: inhibitors of human MLL-AF4/AF9 interaction; AlphaScreen, biotin-AF4 peptide binding to FLAG-AF9; inhibition, % at 10 µM; 0.47% of 350,000 active;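 active = every replicate reaching a set inhibition limit, whatever the replicate mean, cut at about 25% in these data; inconclusive = mean inhibition reaches that limit but some replicates miss it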;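 also: 0% = plate neutral control median and 100% = total signal loss; the record names both 10 and 1 µM as test concentration; the first replicate is given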
# Target sequence (P42568 whole entry, looked up): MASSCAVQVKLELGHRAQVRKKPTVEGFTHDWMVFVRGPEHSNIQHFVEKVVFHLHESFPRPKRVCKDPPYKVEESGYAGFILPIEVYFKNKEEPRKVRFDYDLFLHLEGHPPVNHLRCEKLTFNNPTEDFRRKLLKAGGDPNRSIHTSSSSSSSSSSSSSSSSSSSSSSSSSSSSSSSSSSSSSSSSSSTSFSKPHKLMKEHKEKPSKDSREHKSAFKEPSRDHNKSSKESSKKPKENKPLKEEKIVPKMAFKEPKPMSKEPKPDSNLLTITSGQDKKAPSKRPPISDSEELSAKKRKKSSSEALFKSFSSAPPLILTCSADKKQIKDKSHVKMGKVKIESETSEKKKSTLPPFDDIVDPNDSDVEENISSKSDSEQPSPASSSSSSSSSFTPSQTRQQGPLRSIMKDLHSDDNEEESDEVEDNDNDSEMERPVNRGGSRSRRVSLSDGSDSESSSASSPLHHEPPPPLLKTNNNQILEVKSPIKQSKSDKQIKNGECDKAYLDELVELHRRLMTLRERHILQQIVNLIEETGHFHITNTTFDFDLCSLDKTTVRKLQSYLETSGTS
# T cruzi repl: T. cruzi replication inhibition. 1.4% of 300,000 active. inhibition, % (concentration not given with the values). T. cruzi beta-gal in NIH3T3, luminescence, 90 h. AID 1885;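 active = mean inhibition across valid replicates above about 55%, limit read from the data; inconclusive = mean below that limit but half or more replicates reach it; inactive = mean below it, under half of replicates reach it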;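 also: signal also drops with host cell toxicity which is not excluded here; 0% = plate median of DMSO wells and 100% = zero luminescence signal; higher percent means less beta-gal luminescence so fewer parasites; stock transfer was 50 nL into about 50 µL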
# Vif A3G: HIV-1 Vif–A3G interaction blockers – biochemical, TR-FRET, GST-Vif 1-94, biotin-A3G peptide, dose response retest, primary screen (AID 1117319); TR-FRET GST-Vif / biotin-A3G peptide binding; higher % means a stronger effect; test concentration not given here; strong numbers were not always called active; inhibition, %, or IC50 in µM where a hit was titrated; 0.57% of 260,000 active;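 active = above the screen mean plus three standard deviations and confirmed in dose response; inconclusive = results disagree or hit not tested in dose response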;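 also: Vif residues 1-94 fused to GST binding biotinylated APOBEC3G peptide 110-148; 0% = full assay without inhibitor and 100% = GST in place of GST-Vif; retest series ran down from 100 µM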
# RanGTP-Impb inh: disruptors of Ran-importin-beta complex formation – biochemical, FRET, CFP-Ran, YFP-importin-beta, homogeneous, primary screen | cell-free CFP-Ran/YFP-importin-beta FRET ratio | inhibition, % (concentration not given with the values) | 1.1% of 300,000 active | AID 2216;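 active = most replicates above 15%; inconclusive = exactly half above 15%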;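 also: 0% = DMSO wells and 100% = Ran loaded with GDP instead of GTP; wells of about 40 µL received 100 nL stock; the first replicate is given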
# Calb FLC: affects C. albicans growth with fluconazole; growth inhibition, % (concentration not given with the values); AID 1979; 0.57% of 300,000 active; C. albicans CaCi-2 (fluconazole-resistant clinical isolate) + fluconazole, Alamar Blue growth, 48 h;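 active = most replicates above 75%; inconclusive = exactly half above 75%; inactive = most below 75%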;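 also: all wells also contain fluconazole at 8 µg/ml as a sub-toxic cotreatment; 0% = median of DMSO wells and 100% = median of geldanamycin control wells; wells of about 8 µL received 7.5 nL stock; the first replicate is given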
# Beta apoptosis: beta cell apoptosis inhibition | INS-1E cytokine-induced death, ATP luminescence, 48 h; percent of positive-control rescue, neutral wells zero | protection from apoptosis, % (concentration not given with the values) | 0.8% of 300,000 active;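 active = all replicates at 75% or more, or half of them and the mean; inconclusive = half reach 75% but not the mean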;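 also: 0% = cytokine-treated negative control wells and 100% = positive control rescue; higher means more ATP so stronger rescue from cytokine killing; wells of about 40 µL received 100 nL stock; the first replicate is given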
# A1 inh: inhibitors of the anti-apoptotic protein A1, read as caspase activation; MEF A1-2A-BIM cells, Caspase-Glo 3/7 luminescence, 3 h; percent of clofoctol response, vehicle zero; caspase activation, % (concentration not given with the values); 0.066% of 330,000 active; AID 2462;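 active = over half of replicate activation scores above 10%, or exactly half above 10 with the replicate mean above 10; inconclusive = replicate mean below 10 yet half the replicates above 10; inactive = over half of replicates below 10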;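 also: wells of about 30 µL received 50 nL stock; many hits fall short of the cut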
# rRNA inh HTS OD600: further read-out of rRNA inh HTS, marked with its call; OD600 change, %; measured here: OD600 growth;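 optical density of the mix in the first replicate; 0 = DMSO median and -100 = no signal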
# rRNA inh HTS RFP: second read-out of rRNA inh HTS, no call of its own (marks repeat the call); RFP signal change, %; measured here: RFP humanized mutant strains;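 first replicate; 0 = DMSO median and -100 = no signal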
# * marks the source's active call; other numbers are inactive results; ? = inconclusive; / = no result given; & = joins results of further samples.
SMILES,rRNA inh HTS,rRNA inh HTS OD600,rRNA inh HTS RFP,MLL AF4-AF9 inh,T cruzi repl,Vif A3G,RanGTP-Impb inh,Calb FLC,Beta apoptosis,A1 inh
Cc1ccc2cc(CCNC(=O)CCCc3ccccc3)c(=O)[nH]c2c1,8,13,-0.3,0.7,11,/,0.5,-3,/,-0.9
CN(C(=O)c1ccccc1)C1c2c(ccc3ccccc23)OCC1CO (stereo unspecified),-32,-38,-4.3,-34,12,-6%,-0.9,-2,-3,0.1
O=C(CCn1c(=O)c2cccn2c2ccc(F)cc21)NCc1cccc(F)c1,9,2,-1.1,0.7,12,/,0.2,13,8,0.5
CC(=O)NC(CC(=O)NNC(=O)c1cc2ccccc2cc1O)c1ccccc1 (stereo unspecified),-2,-3,2.1,2.5,-15,12%,-3.4,?,-5,0.1
COc1ccc(NC(=O)CCS(=O)(=O)c2ccc3c(c2)NC(=O)C(C)S3)cc1OC (stereo unspecified),3,4,-2.3,0.8,-2,2%,-1.6,-6,-6,-0.1
C/C(N)=C(/C#N)C(=O)CSc1nnc(-c2ccc(OC(F)F)cc2)o1,-9,6,-0.1,-0.8,-2,2%&17%,-1.5,9,5,0.3
COc1ccc(C(=O)N[C@H](C(=O)NCCCSc2ccccc2)C(C)C)cc1,9,17,2.2,-2.0,/,-2%,/,/,-8,0.6
COc1ccc(NC2CC(=O)N(c3cc([N+](=O)[O-])ccc3C)C2=O)cc1 (stereo unspecified),12,8,-4.6,2.4,-7,13%,-0.4,3,0,-0.2
CCC(C)[C@H]1CN=C(N)N1CCCc1cc(OC)c(OC)c(OC)c1 (stereo partly specified),3,11,1.1,-1.5,-27,/,-1.8,-7,-2,1.3
O=C(COc1ccc2ccccc2c1)Nc1ccc(Br)cc1C(=O)O,-36,-50,-12,-1.2,-8,/,-0.6,-1,-4,-0.9
CCN(C[C@H]1N[C@@](Cc2ccccc2)(C(=O)OC)[C@H]2C(=O)N(C)C(=O)[C@@H]12)S(=O)(=O)c1ccc(OC(F)(F)F)cc1,3,-10,2.4,-1.0,/,-9%,/,/,-1,1.7
COc1ccc(NC(=O)CN(C)S(=O)(=O)c2cnc[nH]2)cc1OC,-2,-7,3.8,-5.6,-7,3%,-0.5,5,3,-0.8
Cc1noc(C)c1S(=O)(=O)N1CCC(C(=O)c2ccccc2)CC1,-12,-9,-1.8,-3.0,8,?,3.3,-2,-11,0.7
COc1nc(N2CCOCC2)nc(C)c1[N+](=O)[O-],10,6,1.2,8.4,-5,/,0.6,15,-3,0.2
O=C(c1ccco1)N1CCN(c2nc(C3CC3)nc3c2nnn3Cc2ccccc2Cl)CC1,/,/,/,/,14,-9%,-2.3,-6,21,-1.1
O=C(COC(=O)Cc1ccc(F)cc1)NC(=O)c1ccccc1,7,-4,-2.0,3.5,-15,-5%,-2.2,7,-7,-0.5
Nc1nonc1-n1nnc(C(=O)N/N=C/c2cccc(Cl)c2)c1CSc1ccc(Cl)cc1,3,0,1.8,-8.9,-1,/,1.5,-1,-5,0.3
CCNc1ccc(C(=O)OCC)cc1NC(=O)c1cc(S(=O)(=O)N2CCOCC2)ccc1C,/,/,/,/,-6,18%,-0.4,-10,-6,-0.3
COc1ccc(C(=O)N=c2sc3ccccc3n2C)cc1OC,12,12,-1.1,0.0,/,-102%,2.7,21,5,0.6
Nc1nc(N)nc(-c2cccc(Cl)c2Cl)n1,-5,-27,-7.7,3.2,/,/,/,/,-2,-1.3
OCCN1CCN(Cc2ccc3ccccc3c2)CC1,9,2,2.7,-4.5,11,/,8.6,-5,-4,0.6
COc1ccc(NC(C)=O)cc1NC(C)C(=O)Nc1cc(C(F)(F)F)ccc1N1CCOCC1 (stereo unspecified),-11,-18,-6.3,7.9,-5,/,-3.5,-20,-1,-1.0
Cc1cc(C)c(C#N)c(SCCS(=O)(=O)c2ccc(Cl)cc2)n1,-15,-18,19,-5.5,-9,/,4.5,11,3,1.1
CC(=O)OC1CC2(C)C(=O)CCC2C2CCc3cc(O)ccc3C12 (stereo unspecified),-9,-2,1.2,-2.4,13,-2%,-0.9,6,4,-0.5
C=CC[C@@H](CC(=O)N[C@@H](CO)Cc1ccccc1)C(=O)N[C@H](C)COC(=O)[C@@H](CC=C)Cc1ccc(F)cc1,8,11,-5.8,-1.4,/,/,/,/,2,0.8
SMILES,rRNA inh HTS,rRNA inh HTS OD600,rRNA inh HTS RFP,MLL AF4-AF9 inh,T cruzi repl,Vif A3G,RanGTP-Impb inh,Calb FLC,Beta apoptosis,A1 inh
Cn1c(-c2ccc(Br)cc2)cnc1NCc1ccc(C#N)cc1,-5,-1,1.5,15,9,-6%,1.3,15,2,0.8
COCCn1cnc2c1c(=O)n(CC(=O)O)c(=O)n2Cc1ccccc1,5,2,-9.1,-3.4,-29,-6%,2.6,/,-5,0.0
CCCCOc1ccc(C(=O)NCc2ccccn2)cc1,/,/,/,/,-27,0%,3.0,12,3,-1.9
CCOC(=O)C1=C(C)Nc2sc(C(=O)c3ccc(C)cc3)c(N)c2C1c1ccc(C(=O)OC)cc1 (stereo unspecified),3,2,-0.9,-29,11,-8%,-89,-7,-1,-0.6
COc1ccccc1CN1CC(C(=O)N2CCCCO2)CCC1=O (stereo unspecified),2,12,-1.3,0.7,-32,2%,2.4,-18,9,0.5
Cc1cccnc1NC(=O)c1ccccc1-c1ccccc1C(=O)Nc1ncccc1C,/,/,/,/,-5,?,1.3,1,0,0.2
COc1ccc(OC)c(C2CC(=O)N3CN(c4ccccc4)CSC3=C2C#N)c1 (stereo unspecified),5,15,0.5,1.7,5,5%,-6.8,5,-1,0.1
O=C(CCNC(=O)C1CCN(S(=O)(=O)c2ccc(F)cc2)CC1)NCc1ccc(Cl)cc1,12,15,-1.6,-3.0,13,?,2.8,2,-4,0.4
CCN(CC)CCCNC(=O)c1cn(CCOC)c(=O)c2c1c1ccccc1n2C,/,/,/,/,-13,64%,/,-1,-1,0.2
O=C(O)CCn1c(=O)oc2cc(S(=O)(=O)N3CCCC3)ccc21,21,19,1.5,-0.5,/,-3%,/,/,-3,1.1
CCn1c(SCC(=O)Nc2nc(-c3ccc(C)cc3)cs2)nnc1-c1ccccc1,/,/,/,/,13,0%,2.9,-1,-6,-0.1
COC(=O)C1=C(C)N(C)C(C)=C(C(=O)OC)C1c1ccsc1,/,/,/,/,13,4%,1.6,2,-6,-1.8
CC(C(Sc1ccccc1N)c1ccccc1)[N+](=O)[O-] (stereo unspecified),/,/,/,3.8,-26,-19%,0.8,-2,-2,0.6
CC(C)(C)OC(=O)NCCCC[C@H](NC(=O)[C@H](Cc1c[nH]c2ccccc12)NC(=O)OCc1ccccc1)C(=O)O,2,4,0.2,-7.6,-4,-5%,4.2,-5,1,0.2
Cc1ccc(NCN2C(=O)C3C4CCC(C4)C3C2=O)cc1 (stereo unspecified),/,/,/,/,-1,-6%,0.5,-17,3,0.6
Cc1ccccc1C(=O)Nc1ccnn1C1CCN(C(=O)c2cnsn2)CC1,0,1,-0.4,0.0,6,/,3.0,-2,-8,-0.3
Clc1ccc(Cn2c(/C=C/c3ccco3)nc3ccccc32)cc1,/,/,/,/,-3,/,4.9,-11,-8,-0.2
O=C(CSc1nnc2ccccn12)NC(=O)NC1CCCCC1,/,/,/,/,-24,-2%,-1.1,-30,5,-0.2
O=C(O)/C=C/C(=O)Nc1ccc(NC(=O)c2ccccc2)c(Cl)c1,3,5,-4.5,-1.6,4,10%,-1.0,5,3,2.7
CCn1cc(CCCC(=O)NCc2ccc(OC)cc2)c2ccccc21,-27,-34,-0.1,1.2,-5,4%,0.4,4,-6,-0.4
Cc1cc(Cl)ccc1OC(C)C(=O)NCCc1ccc2c(c1)OCCO2 (stereo unspecified),/,/,/,-7.0,2,/,-6.9,3,0,0.4
O=C(Nc1cccc2ccccc12)N1CC=CCC1,/,/,/,/,-8,-3%,-1.0,-3,1,0.1
CCOC(=O)c1c(NC(=O)COC(=O)C2CC2C)sc(C)c1C (stereo unspecified),-4,4,6.1,-9.6,-6,1%,-2.7,2,2,1.0
O=C(c1ccc(S(=O)(=O)NCc2ccco2)cc1)N1CCN(Cc2ccc3c(c2)OCO3)CC1,-8,-12,6.8,1.0,3,/,-2.2,-3,2,0.1
CC(C)(C)n1ncc2c(=O)n(CC(=O)NCc3ccccc3)cnc21,/,/,/,/,-15,28%,-3.0,?,-5,0.0
SMILES,rRNA inh HTS,rRNA inh HTS OD600,rRNA inh HTS RFP,MLL AF4-AF9 inh,T cruzi repl,Vif A3G,RanGTP-Impb inh,Calb FLC,Beta apoptosis,A1 inh
COc1ccc(OC)c(N(CC(=O)N2CCOCC2)S(C)(=O)=O)c1,9,13,2.3,-0.6,-14,2%,-0.3,6,1,-0.3
CCOC(=O)C(CC(=O)O)=C(c1ccccc1)c1ccccc1,5,8,-0.6,-3.6,-21,35%,2.5,2,-5,-0.8
O=C(Nc1ccc2c(c1)OCO2)c1ccc(CN2CCOCC2)cc1,/,/,/,/,-5,-7%,-5.0,-13,1,0.2
O=C(Nc1ccc2c(c1)OCO2)c1cc(-c2ccncc2)nc2ccccc12,-22*,-4.2*,-4.6*,6.7,-3,2%,-1.3,-24,2,-2.3
O=C(CN1CCOCCOCCN(CC(=O)Nc2ccccc2)CCOCC1)Nc1ccccc1,/,/,/,/,6,1%,0.3,-60,1,0.9
CS(=O)(=O)N1N=C(c2cccs2)CC1c1ccccc1O (stereo unspecified),3,-4,0.2,-0.3,-16,-9%,3.5,-8,-2,1.7
C[C@@]12C(=O)N(c3cccc(F)c3)C(=O)N1[C@H](c1ccc(F)cc1)[C@@H]1C(=O)N(C3CCCCC3)C(=O)[C@@H]12,/,/,/,/,-23,/,5.5,-12,-9,0.9
Cc1nc(CCNC(=O)c2cc(COc3ccc(F)cc3Cl)on2)sc1C,-26,-27,-16,-13,-4,4%,3.1,-14,5,0.1
COc1ccc(CCN2CN(S(=O)(=O)c3ccc(C)cc3)c3nc4ccccc4nc32)cc1OC,/,/,/,/,11,4%,4.8,5,-7,-0.1
O=C(CN1C(=O)C2C3C=CC(C3)C2C1=O)OCC(=O)c1ccc([N+](=O)[O-])cc1 (stereo unspecified),-2,4,-3.5,-7.6,3,/,5.2,18,-2,-0.2
CCC(Sc1nc(C)cc(=O)[nH]1)C(=O)Nc1ccc(Cl)cn1 (stereo unspecified),0,2,-0.6,-1.0,-18,-1%,6.3,24,/,-0.1
Cc1cc(-c2nc(-c3ccc(C(C)(C)C)cc3)no2)no1,-4,6,-3.3,-3.8,2,-15%,-5.9,-18,6,0.1
O=S(=O)(c1ccc(Cl)c(C(F)(F)F)c1)N1CCN(c2ccccn2)CC1,19,19,1.1,-1.2,-5,-5%,-1.3,5,-5,-0.1

# High-throughput results as filed in PubChem BioAssay.

# This is a subset; the hit share may differ from the screen's.
